High-throughput results (PubChem)
CBX7 inh – blocks human CBX7 binding to H3K27me3 peptide. O95931. AlphaScreen His6-CBX7 / biotin-H3K27me3 peptide binding; active compounds read low. normalised signal (fraction of DMSO) (concentration not given with the values). 66,000 compounds, 1.1% hits; in the data active = normalised signal below about 0.5;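 also: 100 nL library stock added to about 20 µL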
Target sequence (O95931 whole entry, looked up): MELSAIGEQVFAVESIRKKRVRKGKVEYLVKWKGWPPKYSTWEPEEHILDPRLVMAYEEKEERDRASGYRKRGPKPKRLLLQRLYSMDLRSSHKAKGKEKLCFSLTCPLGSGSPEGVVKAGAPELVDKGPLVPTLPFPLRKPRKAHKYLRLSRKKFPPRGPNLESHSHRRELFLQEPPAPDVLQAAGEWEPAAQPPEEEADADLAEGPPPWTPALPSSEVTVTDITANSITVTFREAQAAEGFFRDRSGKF
CBX7 inh z-score – further read-out of CBX7 inh, marked with its call; z-score; measured here: z-score of CBX7 signal; some inactives read as strong as hits; reference of the scale not given here;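 same signal on another scale; lower means less binding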
* hit, by the source's call; & = joins results of further samples. The list is partial; the hit share may differ from the screen's.

Values run as follows: CBX7 inh	CBX7 inh z-score
- COc1ccc(OC)c(-c2ncnn2-c2cccc(Cl)c2C)c1
    0.777	-2.65
- CC1CCN(Cc2nc(-c3ccccc3)no2)CC1
    0.91	-1.04
- CCC(=O)N1CCc2cc(Br)cc(S(=O)(=O)NCCc3ccc(OC)c(OC)c3)c21
    1.04	1.92
- COCCCNC(=O)Cn1cnc2sc(C)c(S(=O)(=O)N3CCC(C)CC3)c2c1=O
    1.09	0.893
- Clc1ccccc1CN1CCN(Cc2cccnc2)CC1
    1.01	0.149
- CCC1Oc2ccccc2N(CC(=O)NCc2cccnc2)C1=O (stereo not given)
    1.11	1.16
- O=C(CC(C(=O)N1CCc2ccccc21)n1ccnc1)NCc1ccc(F)cc1Cl (stereo not given)
    0.792	-0.422
- Cc1ccc2c(C)nc(Nc3nc(O)cc(=O)[nH]3)nc2c1
    0.685	-6.28
- CC(=O)N1CCc2cc(S(=O)(=O)NCCC(=O)Nc3cccc(C)c3C)ccc21
    0.88	-2.22
- Cc1oc(-c2ccccc2Cl)nc1CS(=O)(=O)CC(=O)NCc1ccc(F)cc1
    1.05	1.45
- COCCNc1nc(C)nc2sc(C)c(C)c12
    1.02	0.651
- CCCCN(C)c1cc(C)nc2c(-c3ccc(Cl)cc3)c(C)nn12
    2.61	16
- CCOC(=O)c1oc2ccccc2c1NC(=O)c1ccccc1OC
    1.07	2.74
- Cc1ccc(S(=O)(=O)N(CC(O)CN2CCCCC2)c2ccccc2)cc1 (stereo not given)
    0.914	-0.987
- CCOc1ccc(CNC(=O)C2CCN(S(=O)(=O)CC)CC2)cc1OC
    1.13	2.01
- CCOc1ccccc1Nc1cc(C)nc2nnnn12
    0.992	-0.109
- Cc1oc(-c2cccc(Cl)c2)nc1CN1CCCC(C(=O)NCc2cccnc2)C1 (stereo not given)
    1.16	1.87
- CC(C)N1C(=O)CCC1C(=O)NCc1ccc(F)cc1 (stereo not given)
    1.03	0.493
- CC(=O)Nc1nonc1-c1nc2ccccc2n1Cc1ccccc1
    0.978&1.02	-0.261&0.868
- CCCOc1cccc(C(=O)Nc2c(C(=O)c3ccc(C)cc3)oc3ccccc23)c1
    1.17	0.594
- CC(=O)N1CCc2cc(S(=O)(=O)NC(C(=O)NCc3ccc(F)cc3)C(C)C)ccc21 (stereo not given)
    0.785	-8.92
- COc1ccc(CC(=O)N2CC(=O)Nc3ccc(F)cc3C2c2ccc(F)cc2)cc1OC (stereo not given)
    1.2	1.92
- Brc1ccc(-c2nnc3n2-c2ccccc2CC3)cc1
    0.842	-1.71
- COc1ccc(NC2CCCCC2NS(=O)(=O)c2ccc(Cl)cc2)cc1 (stereo not given)
    0.989	-0.311
- Cc1nc2c(C(=O)NCCC(C)C)cnn2c(C)c1Cc1ccccc1Cl
    0.909	-2.5
- CC(C)CC1Nc2ccc(C(=O)NCCCN3CCN(c4cccc(Cl)c4)CC3)cc2NC1=O (stereo not given)
    0.699	-0.339
- Cc1nc2c(C(=O)NCc3ccc(F)cc3)cnn2c(C)c1Cc1cccc(Cl)c1
    0.898	-0.96
- O=C(Nc1cccc(-c2nc3ncccc3o2)c1)c1cc2ccccc2o1
    0.977	-0.188
- Cc1ccc(-c2noc(CCC(=O)NCc3cccnc3)n2)cc1
    1.05	0.0641
- CCOC(=O)c1c(NC(=O)C(C)Oc2ccc(Cl)c(C)c2)sc2c1CCCC2 (stereo not given)
    1.05	2.08

New compounds follow
Values run as follows: CBX7 inh	CBX7 inh z-score
- Cc1ccccc1-n1nc2c(c1NC(=O)COc1ccc3ccccc3c1)CS(=O)(=O)C2
    1.02	0.12
- COc1ccccc1CNC(=O)c1cc(Sc2ccc(F)cc2)nc2ccccc12
    0.947	-0.0529
- O=C(Cn1cc(S(=O)(=O)c2ccc(F)cc2)c(=O)c2ccccc21)Nc1ccc2c(c1)OCCO2
    1.02	0.719
- CCN(CC)CCn1nnc2c(=O)oc3ccccc3c21
    0.984	-0.174
- CCOC(=O)N1CCC(NC(=O)C2CCN(C(=O)c3cc4sccc4n3C)CC2)CC1
    1.01	0.158
- COc1ccc(C2=NOC(C(=O)Nc3ccc4c(c3)OCO4)C2)cc1 (stereo not given)
    0.923	-2.89
- CN(CC(=O)NC1CCCCCCC1)S(=O)(=O)c1cccc2cccnc12
    0.89	-1.3
- O=C(Nc1cc(F)ccc1F)c1ccc2c(c1)N(Cc1cccc(Cl)c1)C(=O)c1ccccc1S2=O (stereo not given)
    0.957	-1.02
- Cc1oc(-c2ccccc2F)nc1CS(=O)(=O)CC(=O)NCCc1ccc(Cl)cc1
    1.03	0.905
- CNC(=O)c1nnc(Cc2ccc(Cl)cc2)o1
    1.01	0.444
- CCCCCn1c(=O)[nH]c2cc(C(=O)N3CCN(c4cccc(C)c4)C(C)C3)ccc2c1=O (stereo not given)
    0.959	-0.772
- Cc1cccc2c1-c1sc(C(=O)NCCN(C)C)cc1CO2
    1.1	3.52
- Cc1cc(=O)n2ccc(CN3CCCCC3)c(O)c2n1
    0.00422*	-6.25*
- CC12C=CC(C)(O1)C1C(=O)N(c3cc(C(F)(F)F)ccc3Cl)C(=O)C12 (stereo not given)
    1.01	0.18
- O=C(NC1CCCCC1)c1cc(-c2ccncc2)nc2ccc(S(=O)(=O)N3CCOCC3)cc12
    1.09	1.64
- O=C(Nc1nc(-c2nc3ccccc3s2)cs1)c1ccc(S(=O)(=O)N2CCCCCC2)cc1
    1.11	0.81
- CC1CN(c2cc(=O)n(-c3ccc(Cl)cc3)c(=O)[nH]2)CC(C)O1 (stereo not given)
    1.1	0.96
- CCOc1ccc(NC(=O)c2sc3ncn(Cc4ccccc4Cl)c(=O)c3c2C)cc1
    1.02	0.0957
- Cc1cc(C)c(S(=O)(=O)NCCc2cc3cc(C)c(C)cc3[nH]c2=O)c(C)c1
    1.07	1.27
- O=C(NCC1CCCO1)C1CC(=O)N(CCc2ccccc2)C1 (stereo not given)
    1.03	1.24
- Cc1ccc(CCNC(=O)CSCc2nc(-c3ccccc3Cl)oc2C)cc1
    0.693	-2.94
- CN(Cc1ccccc1)C(=O)CN(C)S(=O)(=O)c1ccc2c(c1)n(C)c(=O)c(=O)n2C
    1.17	1.58
- CCCc1c(C(=O)OCC)[nH]c2c1C(=O)CC(c1ccc(CC)cc1)C2 (stereo not given)
    1.02	0.244
- Cn1c(=O)cc(OCC(=O)NCc2cccnc2)c2ccccc21
    1.09	1.44
- Cc1ccc(CCNC(=O)c2nc(-c3ccc(C)cc3)oc2C)cc1
    1.01	0.145
- CCOC(=O)c1c(CN2CCOCC2)n(-c2ccccc2)c2ccc(O)cc12
    0.915	-2.38
- CCN(CC)CCN1C(=O)CCCc2sc3c(c21)CCCC3
    1.03	1.09
- CCOCCCNC(=O)C1CCN(c2nc3ccccc3[nH]2)CC1
    0.839	-1.85
- COc1cccc(C(O)c2nc3ccccc3n2C(C)C)c1 (stereo not given)
    1.02	0.469
- O=C(NCc1c(F)cc(F)cc1F)C1C2C=CC3(CN(Cc4cccs4)C(=O)C13)O2 (stereo not given)
    1.12	1.81

One compound at a time (already shown):
Profile of COc1ccc(C2=NOC(C(=O)Nc3ccc4c(c3)OCO4)C2)cc1 (stereo not given) : CBX7 inh: 0.923; CBX7 inh z-score: -2.89
Profile of CCCCCn1c(=O)[nH]c2cc(C(=O)N3CCN(c4cccc(C)c4)C(C)C3)ccc2c1=O (stereo not given) : CBX7 inh: 0.959; CBX7 inh z-score: -0.772
Profile of Cc1ccc(CCNC(=O)CSCc2nc(-c3ccccc3Cl)oc2C)cc1 : CBX7 inh: 0.693; CBX7 inh z-score: -2.94

Pulled by compound from above, 2 records:
Values run as follows: CBX7 inh	CBX7 inh z-score
- CNC(=O)c1nnc(Cc2ccc(Cl)cc2)o1
    1.01	0.444
- Cc1ccc(CCNC(=O)CSCc2nc(-c3ccccc3Cl)oc2C)cc1
    0.693	-2.94

Continued.
Values run as follows: CBX7 inh	CBX7 inh z-score
- Cc1ccnc2c(NCN3C(=O)C4C5C=CC(C5)C4C3=O)cccc12 (stereo not given)
    0.997	-0.0343
- Cc1ccn2cc(-c3ccc(S(=O)(=O)N(C)C)cc3)nc2c1
    1.05	0.171
- COc1ccc2c(c1)-c1nc(NC(=O)c3ccccc3Br)sc1CC2
    0.96	-0.579
- CCC(C)NC(=O)c1nc(-c2cccc(OC)c2)oc1C (stereo not given)
    1.13	2.51
- Cc1ccc(CNC(=O)C2CC(=O)N(C3CCCCC3)C2)cc1 (stereo not given)
    1	0.124
- CCOC(=O)c1cccc(Nc2cc(C)nc3c(C)cc(C)cc23)c1
    1	0.0687
- O=c1[nH]c(-c2ccccc2)c(-c2ccccc2)[nH]1
    0.971	-0.559
- CC(C)Oc1ccc(C(=O)Nc2c(C(=O)Nc3cccc(F)c3)oc3ccccc23)cc1
    0.975	-0.317
- CCCCCOc1ccc(C2CC(=O)NC2=O)cc1 (stereo not given)
    0.981	-0.506
- O=C(CCn1nc(-c2ccc(Cl)cc2)ccc1=O)NCCc1ccccc1
    1.05	0.559
- COc1ccccc1Nc1cc(C(=O)NC2CCCCC2C)c2ccccc2n1 (stereo not given)
    1.08	0.0756
- CCS(=O)(=O)NC(C)C(c1cccs1)N1CCN(c2ccc(F)cc2)CC1 (stereo not given)
    0.935	-1.57
- O=C(NC1CCCC1)c1ccc(CNc2c(N3CCOCC3)c(=O)c2=O)cc1
    1.35	0.799
- COC(=O)c1cc2sc(Cl)cc2n1CC(=O)NCCC(C)C
    1.08	2.33
- COc1ccccc1-c1cc(C(=O)Nc2ccc(C#N)cc2)no1
    1.01	0.171
- CC(Oc1ccc(F)cc1)c1nc(-c2nonc2N)no1 (stereo not given)
    1.03	0.707
- COc1ccc(CCNc2nc(=O)[nH]nc2C)cc1OC
    0.976	-0.306
- CCCCNc1nc(SCC(=O)NCc2ccc(C)cc2)nc2ccccc12
    0.989	-0.583
- CC1CCN(CC(=O)N2CC(=O)Nc3ccccc32)CC1
    1.13	0.263
- Cc1cccc(CN2CCN(CC(=O)NCCN3CCOCC3)C2=O)c1
    1.03	1.45
- Cc1ccc(NC(=O)CCc2nnc3ccc(N4CCOCC4)nn23)cc1C
    1.01	0.164
- Cc1ccc(C(C)C)c(OCC(=O)Nc2cc(-c3nc4ncccc4o3)ccc2Cl)c1
    0.969	-0.996
- Cc1ccccc1Cc1c(C)nc2nc(SCC(=O)NC(C)c3ccccc3)nn2c1C (stereo not given)
    0.843	-0.273
- COc1ccc(NC(=O)c2cn(CC(C)C)c(=O)c3cc(OC)c(OC)cc23)c(OC)c1
    1.18	1.56
- COc1ccc(-c2nn(C)c3sc(C(=O)NCc4ccc(F)cc4Cl)cc23)cc1OC
    1.07	2.77
- COc1cccc(-c2nc(-c3ccsc3)c(-c3ccccc3)[nH]2)c1OC
    0.924	-1.9
- COCCCNC(=O)c1ccc2c(c1)N(Cc1ccccc1)C(=O)c1ccccc1S2
    0.913	-0.858
- COc1ccc(NC(=O)Nc2nnc(COc3ccccc3F)s2)cc1
    0.815	-0.652
- Cc1nc2cc(-c3ccccc3)nn2c(C)c1CCC(=O)Nc1ccc(F)c(Cl)c1
    1.05	1.41
- CCCCNC(=O)c1sc2nc(-c3ccccc3)cn2c1C
    1.05	1.03

The listing continues:
Values run as follows: CBX7 inh	CBX7 inh z-score
- CCOc1ccc(Br)cc1C1CC(=O)Nc2cc(OC)c(OC)cc21 (stereo not given)
    1.01	0.538
- CCC(=O)N1CCc2cc(S(=O)(=O)NC(CC(C)C)C(=O)Nc3cccc(CC)c3)ccc21 (stereo not given)
    0.969	-1.11
- CCC1=Nc2cc(C(=O)N3CCC(Cc4ccccc4)CC3)ccc2Sc2ccc(C)cc21
    0.679	-4.61
- CCN(C(=O)Cc1c(C(=O)O)[nH]c2ccccc12)c1ccc(F)cc1
    0.78	-0.868
- CCC(C(=O)NCCCN1CCN(c2cc(C)ccc2C)CC1)n1ncc2ccccc21 (stereo not given)
    0.797	-3.16
- CCC(C)NC(=O)c1ccc2c(c1)ncn2C1CCCC1 (stereo not given)
    1.16	1.85
- C=CCn1c(=O)c(C(=O)Nc2cccc(Cl)c2)c(O)c2ccccc21
    1.03	0.607
- Cc1oc(-c2cccc(Cl)c2)nc1CS(=O)(=O)CC(=O)NC1CCCC1
    0.988	-0.339
- CCOc1ccc(N2C(=O)Cn3cccc3C2C(=O)NC2CCCCC2)cc1 (stereo not given)
    1.02	0.466
- CCOc1ccc(NC(=O)c2sc3ncn(CC(=O)N4CC(C)CC(C)C4)c(=O)c3c2C)cc1 (stereo not given)
    1.01	0.142
- CN(CCCNC(=O)c1cn(-c2ccc(F)cc2F)c(=O)c2ccccc12)Cc1ccccc1
    1.05	1.17
- O=c1cc(Nc2ccc3c(c2)OCCO3)[nH]c(=O)n1-c1ccc(Br)cc1
    1.05	0.875
- CCCc1ccc(OCC(O)CN2CCN(c3ccccc3OC)CC2)cc1 (stereo not given)
    0.998	-0.0723
- CCN(c1ccccc1)S(=O)(=O)c1ccc2[nH]cc(C(=O)NCCc3ccccc3)c(=O)c2c1
    1.01	0.202
- CCc1ccc(NC(=O)Cn2c(SCc3ccc(C)cc3)nc3ccncc32)cc1
    0.969	-0.443
- COc1cccc(NS(=O)(=O)c2ccc3[nH]cc(C(=O)NCCc4ccc(C)cc4)c(=O)c3c2)c1
    1	0.062
- O=C(CN1C(=O)COc2ccc(S(=O)(=O)N3CCCC3)cc21)N1CCN(c2ccccn2)CC1
    1.02	0.504
- CCCCOc1ccc(-c2nc3c(C(=O)OC)c[nH]n3c2NC2CCCCC2)cc1
    0.187*	-16.1*

An excerpt of these results, with bars between the fields.
smiles | CBX7 inh | CBX7 inh z-score
CCC(C(=O)NCCCN1CCN(c2cc(C)ccc2C)CC1)n1ncc2ccccc21 (stereo not given) | 0.797 | -3.16
CCC(C)NC(=O)c1ccc2c(c1)ncn2C1CCCC1 (stereo not given) | 1.16 | 1.85
C=CCn1c(=O)c(C(=O)Nc2cccc(Cl)c2)c(O)c2ccccc21 | 1.03 | 0.607
